Bioassay records deposited in PubChem by ICCB-Longwood Screening Facility, Harvard Medical School.
VACV E9 pol inh – vaccinia E9 polymerase processive synthesis inhibitors, primary screen, biochemical, absorbance. Vaccinia virus DNA polymerase (E9) processive complex. in vitro processive DNA synthesis, absorbance read-out; active compounds read low; some inactives read as strong as hits. normalized absorbance, % (test concentration not listed). actives 0.94% (n = 46,000). AID 493162, 2011;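 active means replicate mean up to 90% and picked by the depositor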;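 further: 100% = median of the test wells of a plate; 100 nL library stock went into each well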
* = called active by the depositor. These rows are one share of the data. The share of hits here may be higher or lower than overall.

Cc1cccc(Cn2c(=O)n(-c3ccccc3)c(=O)c3sccc32)c1 was read as VACV E9 pol inh 101.
For CCCOc1ccc(C(=O)Nc2ccc(C(=O)OCC)cc2)cc1 the results were VACV E9 pol inh 98.
CN1CCN(Cc2c(C#N)c3ccccc3n2C)CC1 was read as VACV E9 pol inh 100.
Screening O=c1[nH]c(-c2ccc(F)cc2)nc2ccccc12 returned VACV E9 pol inh 102.
Screening Cn1c2ccccc2c2nn(-c3ccccc3)c(=O)cc21 returned VACV E9 pol inh 101.
S=C(Nc1ccc2[nH]ccc2c1)NC1CCCCC1 was read as VACV E9 pol inh 98.
COc1ccc(CCN(C)CCCC(C#N)(c2cc(OC)c(OC)c(OC)c2)C(C)C)cc1OC (stereo unspecified) was read as VACV E9 pol inh 100.
For Cc1nc2ccccc2nc1SCC(=O)Nc1ccccc1 the results were VACV E9 pol inh 109.
For COc1ccc(/C=C2\SC(=S)N(CCC(=O)N3CCN(C)CC3)C2=O)cc1 the results were VACV E9 pol inh 98.
`O=S(=O)(c1cccc(F)c1)N1CCCN(c2ccc(C(F)(F)F)cn2)CC1` gave VACV E9 pol inh 112.
`S=C(c1ccccc1)N1CCN(Cc2ccccc2)CC1` gave VACV E9 pol inh 100.
Screening Nc1cccc(NC(=O)CCC(=O)O)c1 returned VACV E9 pol inh 72*.
CC(CO)N1CCS(=O)(=O)CC1 (stereo unspecified) was read as VACV E9 pol inh 100.
Cc1c(Cl)cccc1NC(=O)C1NC(=O)CC1c1ccccc1 (stereo unspecified) was read as VACV E9 pol inh 100.
COC(=O)c1cnc(N2CCCN(C(=O)c3cc(C(C)(C)C)nn3C)CC2)nc1C(F)(F)F was read as VACV E9 pol inh 105.
Screening CC(=O)NC(Nc1ccccc1)(C(F)(F)F)C(F)(F)F returned VACV E9 pol inh 99.
`O=C(O)c1cc(Sc2ccccc2)nc2ccccc12` gave VACV E9 pol inh 99.
`Cc1ccc(S(=O)(=O)NC(=O)c2c(C)cc3ccccn23)cc1` gave VACV E9 pol inh 102.
For C=C(C)Cn1c(-c2cccs2)nc2ccccc21 the results were VACV E9 pol inh 113.
CSc1sc(-c2ccnc(SCC(=O)c3ccc(Cl)cc3)n2)c2c1C(=O)CCC2 was read as VACV E9 pol inh 101.

Sorted by number of heavy atoms (descending): 13 of the compounds above.
COc1ccc(CCN(C)CCCC(C#N)(c2cc(OC)c(OC)c(OC)c2)C(C)C)cc1OC (stereo unspecified) was read as VACV E9 pol inh 100.
COC(=O)c1cnc(N2CCCN(C(=O)c3cc(C(C)(C)C)nn3C)CC2)nc1C(F)(F)F was read as VACV E9 pol inh 105.
CSc1sc(-c2ccnc(SCC(=O)c3ccc(Cl)cc3)n2)c2c1C(=O)CCC2 was read as VACV E9 pol inh 101.
Cc1cccc(Cn2c(=O)n(-c3ccccc3)c(=O)c3sccc32)c1 was read as VACV E9 pol inh 101.
For CCCOc1ccc(C(=O)Nc2ccc(C(=O)OCC)cc2)cc1 the results were VACV E9 pol inh 98.
`Cc1ccc(S(=O)(=O)NC(=O)c2c(C)cc3ccccn23)cc1` gave VACV E9 pol inh 102.
For Cc1nc2ccccc2nc1SCC(=O)Nc1ccccc1 the results were VACV E9 pol inh 109.
`S=C(c1ccccc1)N1CCN(Cc2ccccc2)CC1` gave VACV E9 pol inh 100.
`O=C(O)c1cc(Sc2ccccc2)nc2ccccc12` gave VACV E9 pol inh 99.
S=C(Nc1ccc2[nH]ccc2c1)NC1CCCCC1 was read as VACV E9 pol inh 98.
For C=C(C)Cn1c(-c2cccs2)nc2ccccc21 the results were VACV E9 pol inh 113.
Screening Nc1cccc(NC(=O)CCC(=O)O)c1 returned VACV E9 pol inh 72*.
CC(CO)N1CCS(=O)(=O)CC1 (stereo unspecified) was read as VACV E9 pol inh 100.

More structures follow:
Screening CCn1c(=NC(=O)c2ccccc2OC)sc2cc(Br)ccc21 returned VACV E9 pol inh 98.
`COC(=O)c1cc(C(=O)C2CCCCC2)c[nH]1` gave VACV E9 pol inh 116.
`CC(=O)Nc1ccc(NC2SC(=O)N(c3ccccc3)C2=O)cc1` (stereo unspecified) gave VACV E9 pol inh 100.
Screening Cc1ccc(NC(=O)c2cc3c(=O)oc4ccccc4c3n2C)cc1F returned VACV E9 pol inh 100.
For COc1cc(CNc2ccc(C(=O)O)cc2)ccc1OCc1ccc(Cl)cc1 the results were VACV E9 pol inh 100.
For Cc1ccc(S(=O)(=O)N(CCC#N)CC2CCCO2)cc1 (stereo unspecified) the results were VACV E9 pol inh 105.
For Oc1ccc(CN2CCCCC2)c2cccnc12 the results were VACV E9 pol inh 102.
For Cc1ccc2c(c1)c1c(n2CCC(=O)O)C(=O)CCC1 the results were VACV E9 pol inh 98.
Screening Cn1c(C(=O)NCCCN2CCCC2=O)cc2sccc21 returned VACV E9 pol inh 99.
For COc1ccc(-c2cc(-c3ccccc3)c(C#N)c(SC3CCCCC3=O)n2)cc1 (stereo unspecified) the results were VACV E9 pol inh 100.
Screening CCCCN(C)C(=O)Cn1ncc2c3ccccc3n(C)c2c1=O returned VACV E9 pol inh 103.
For COc1ccccc1C(=O)NCc1ccc2[nH]c3c(c2c1)CCCC3 the results were VACV E9 pol inh 103.
`Cc1ccc(S(=O)(=O)N2CCOCC2)s1` gave VACV E9 pol inh 118.
For CCOc1cc2c(cc1C(C)(C)C)NC(=O)CS2 the results were VACV E9 pol inh 98.
CC(C)n1c(-c2ccc(N(C)C)cc2)nc2ccccc21 was read as VACV E9 pol inh 101.
`NC(=O)C1OC(c2ccccc2)OC1C(N)=O` (stereo unspecified) gave VACV E9 pol inh 92.
`Cc1cc(C)c2c(=O)cc(C(F)(F)F)oc2c1` gave VACV E9 pol inh 100.
`c1ccc2[nH]c(SN3CCCCC3)nc2c1` gave VACV E9 pol inh 100.
Screening COc1ccc(-c2cc(C(=O)NC3CCCC3)c3ccccc3n2)cc1 returned VACV E9 pol inh 99.
Screening CCCCc1ccc(NC(=O)CC)cc1 returned VACV E9 pol inh 101.
O=C1CCCC2=C1C(c1ccccc1O)C1=C(CCCC1=O)O2 was read as VACV E9 pol inh 106.
For O=C(CSc1ccc(-c2ccncc2)nn1)Nc1ccccc1 the results were VACV E9 pol inh 105.
Cc1cccc(NC(=O)c2sc3[nH]c(=O)c(C(=O)O)cc3c2N)c1C was read as VACV E9 pol inh 85.
CCn1c(=O)c2sccc2n2c(CCCC(=O)NCc3cccnc3)nnc12 was read as VACV E9 pol inh 85.
For COC(=O)Cn1ncn2nc(-c3cccs3)cc2c1=O the results were VACV E9 pol inh 98.
Screening CC(C)COc1cccc(OCC(=O)Nc2ccc(F)cc2)c1 returned VACV E9 pol inh 107.
Cc1c(NC(C)C)c(=O)n(-c2ccccc2)n1C was read as VACV E9 pol inh 101.
For CC(C)c1ccccc1NC(=O)COC(=O)c1ccc2ccccc2n1 the results were VACV E9 pol inh 113.
For CSc1sc(-c2ccccc2)c2[n+]1CC(=O)N2 the results were VACV E9 pol inh 98.
For Cc1nn(-c2ccccc2)c2nc3c(cc12)C(=O)CCC3 the results were VACV E9 pol inh 98.
For O=C1c2ccccc2C(=O)N1CCc1cn2cccnc2n1 the results were VACV E9 pol inh 103.
For O=C1NC(=Nc2cccc3ccccc23)SC1(CO)CO the results were VACV E9 pol inh 151.
C(=Nc1cccc2ccccc12)c1ccc(Sc2nnnn2-c2ccccc2)o1 was read as VACV E9 pol inh 105.
`Cc1ccsc1C(=O)OCC(=O)N1CCC(Cc2ccccc2)CC1` gave VACV E9 pol inh 103.
Screening CCC1=Nc2cc(C(=O)O)ccc2Sc2ccc(Cl)cc21 returned VACV E9 pol inh 87.
Screening O=C(CSc1ncnc2ccccc12)Nc1ccc2c(c1)OCO2 returned VACV E9 pol inh 100.
For Cc1ccc(NC(=O)N(C2=NCC(C)(C)S2)c2ccc(F)c(Cl)c2)cc1 the results were VACV E9 pol inh 107.
For CC(NC(=O)Oc1c(Cl)cc(Cl)c2ccccc12)(C(F)(F)F)C(F)(F)F the results were VACV E9 pol inh 101.
For N#CC1=C(SCC(=O)Nc2ccccc2)NC(=O)CC1c1ccccc1F (stereo unspecified) the results were VACV E9 pol inh 100.
Screening O=C1NN(c2ccc(Cl)c(Cl)c2)C(=O)/C1=C\C=C\c1ccccc1 returned VACV E9 pol inh 101.
COC(=O)c1ccc(S(=O)(=O)NC2CCN(Cc3ccccc3)CC2)n1C was read as VACV E9 pol inh 97.
Screening CCN(CC)C(=O)c1sc(N2C(=O)Nc3ccccc3N2O)c(C(=O)OC)c1C returned VACV E9 pol inh 105.
For C=CCSc1ncccc1C(=O)NCc1ccc(C)cc1 the results were VACV E9 pol inh 104.
`Cc1nnc(Sc2cc(C(=O)NCCN(C)Cc3ccccc3)c3ccccc3n2)s1` gave VACV E9 pol inh 74.
`CCN(CC)c1ccc(CC(=O)NC(C)Cc2ccccc2)cc1` (stereo unspecified) gave VACV E9 pol inh 101.
For O=C(CC[n+]1ccc(/C=N/O)cc1)NCc1ccccc1 the results were VACV E9 pol inh 100.
For Clc1ccc(-c2noc(Cc3ccccc3)n2)cc1 the results were VACV E9 pol inh 106.
Screening OC(CSc1nc(-c2ccccc2)n(-c2ccccc2)n1)C(F)(F)F (stereo unspecified) returned VACV E9 pol inh 100.
Screening CN(C(=O)c1ccc(F)cc1)C1CCS(=O)(=O)C1 (stereo unspecified) returned VACV E9 pol inh 104.
For O=C(O)CSc1c(-c2cccs2)[nH]c2ccccc12 the results were VACV E9 pol inh 92.
Cc1nccn1-c1nc(-c2ccc(F)cc2)cc(C(F)(F)F)n1 was read as VACV E9 pol inh 98.
CCOc1ccc(C2(C)CC(C)(C)Nc3ccccc32)cc1 (stereo unspecified) was read as VACV E9 pol inh 100.
O=C(Nc1nc(-c2ccc3c(c2)OCCO3)cs1)C1CC1 was read as VACV E9 pol inh 92.
`CCN(CC)C(=O)Cn1ncc2c(C)n(Cc3ccccc3F)c(C)c2c1=O` gave VACV E9 pol inh 100.
CS(=O)(=O)N1CCC(C(=O)NCCc2ccccc2)CC1 was read as VACV E9 pol inh 100.
Cc1c(C)c(C)c(C(=O)c2ccccc2C(=O)NCc2cccnc2)c(C)c1C was read as VACV E9 pol inh 100.
For Cc1nnc(NCCc2ccccc2)[nH]c1=O the results were VACV E9 pol inh 101.
`OCc1nc2ccccc2n1Cc1ccc(Cl)cc1` gave VACV E9 pol inh 102.
For CC1CCN(S(=O)(=O)c2ccc3[nH]c(=O)[nH]c3c2)CC1 the results were VACV E9 pol inh 100.
`COc1ccccc1NC(=O)c1cc2ccccc2c(C=Nc2ccc(NC(C)=O)cc2)c1O` gave VACV E9 pol inh 100.
Screening CCN(CC)CCNc1nc(-c2ccco2)c2c(c1C#N)CC(C)(C)OC2 returned VACV E9 pol inh 96.
Screening Cc1cc(Cl)c(O)c(-n2nc3ccccc3n2)c1 returned VACV E9 pol inh 98.
For CN(C)CC1CCCCC1OC(=O)c1ccc(Cl)cc1 (stereo unspecified) the results were VACV E9 pol inh 95.
For CN(CC(=O)N1CC=C(c2ccccc2)CC1)S(=O)(=O)c1ccc2nc(-c3ccccc3)[nH]c2c1 the results were VACV E9 pol inh 102.
`CC1=C(C)CC(C(=O)N2CCN(Cc3ccccc3)CC2)C(C(=O)O)C1` (stereo unspecified) gave VACV E9 pol inh 84.
`CCOc1cccc2sc(=NC(=O)c3ccc(C#N)cc3)n(CC)c12` gave VACV E9 pol inh 73.
For CCOC(=O)c1c(NC(=O)c2cc(=O)c3ccccc3o2)sc(C)c1C the results were VACV E9 pol inh 100.
For Cc1cc(=O)oc2cc(Oc3nncc4ccccc34)ccc12 the results were VACV E9 pol inh 78.
`COc1cccc(Cl)c1NC(=O)N1CCN(c2cc(C)nc3ccccc23)CC1` gave VACV E9 pol inh 104.
For CCSc1nc2sc3c(c2c(=O)n1CCc1ccccc1)CCC3 the results were VACV E9 pol inh 101.
Screening CC(=O)Nc1nnc(-c2ccc(Cl)cc2)s1 returned VACV E9 pol inh 101.
For O=C(O)COc1ccc2c(c1)oc(=O)c1ccccc12 the results were VACV E9 pol inh 90*.
Cc1ccc(OCCSc2ncnc3ccccc23)cc1 was read as VACV E9 pol inh 97.
For Cc1cc(C)n(-c2nc3ccccc3[nH]c2=O)n1 the results were VACV E9 pol inh 95.
CC(C)C(=O)Nc1cc(Cl)cc(Cl)c1 was read as VACV E9 pol inh 102.
For CN(C)S(=O)(=O)c1ccc2c(c1)oc(=O)c1cc(S(=O)(=O)N(C)C)ccc12 the results were VACV E9 pol inh 101.
COC(=O)c1c(N)sc2c1C(C(=O)OC)CC2 (stereo unspecified) was read as VACV E9 pol inh 92.
N#CCSc1nc2ccccc2c(=O)n1CCCC(=O)NCc1ccco1 was read as VACV E9 pol inh 95.
For O=c1[nH]c(SCc2ccc(C(F)(F)F)cc2)nc2c1cnn2-c1ccccc1 the results were VACV E9 pol inh 98.
For Cn1c(CCNC(=O)C(C)(C)C)nc2ccccc21 the results were VACV E9 pol inh 101.
Cc1n[nH]c(C)c1Sc1nccc(-c2cccnc2)n1 was read as VACV E9 pol inh 106.
Nc1ccc(I)cc1C(=O)O was read as VACV E9 pol inh 101.
O=C(c1ccc(N2CCOCC2)nc1)N1CCCCCC1 was read as VACV E9 pol inh 100.
Screening Cc1ccnc(SCC(=O)NC(c2ccccc2)c2ccccc2)n1 returned VACV E9 pol inh 102.
OC(c1ccccc1)(c1ccccc1)C1CCCN1Cc1ccccc1 (stereo unspecified) was read as VACV E9 pol inh 101.
`OC(CN1CCC(c2c[nH]c3ccccc23)CC1)C(F)(F)F` (stereo unspecified) gave VACV E9 pol inh 101.
Screening O=c1oc(-c2cccc(Cl)c2)nc2c1cnn2-c1ccccc1 returned VACV E9 pol inh 99.
CCOc1ccc(CCNC(=O)Cc2ncn[nH]2)cc1OCC was read as VACV E9 pol inh 100.
Screening COc1ccc(N=C2CCCN2CC(N)=O)cc1 returned VACV E9 pol inh 101.
Screening CCC(=O)Nc1cc(-c2nc3cccnc3s2)ccc1C returned VACV E9 pol inh 102.
Screening O=C(O)C(Sc1ncn[nH]1)c1ccccc1 (stereo unspecified) returned VACV E9 pol inh 99.
